# Assay outcomes as filed in PubChem.
# CDC25B CDK2 inh: human CDC25B-CDK2/CyclinA binding inhibition; P30305+P24941; HTRF CDC25B-CDK2/CyclinA binding, anti-His/anti-Flag; stronger effect = higher value; z-score (concentration not given with the values); actives 0.72% (n = 94,000);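 further: score is relative to mean and SD of negative controls; strong numbers were not always called active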
# HIV TAR-Tat: HIV-1 TAR-Tat binding disruption. z-score (concentration not given with the values). HIV-1 TAR RNA, Tat peptide displacement FRET; stronger effect = higher value. actives 0.6% (n = 100,000);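 further: score is relative to mean and SD of negative controls; some compounds called inactive have numbers as strong as hits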
# An asterisk follows results filed as active; · = not tested or not shown.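 How the source made its calls: active means z-score from 3 up in half or more of its runs; inactive means the rest.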
# Fields: CDC25B CDK2 inh	HIV TAR-Tat
- Cc1ccc(NC(=O)Cc2ccc(NC3=NC4CS(=O)(=O)CC4S3)cc2)cc1 (configuration not stated)
    -1.2	2.8
- Cc1sc2ncnc(SCC(=O)OCC(C)C)c2c1C
    -0.11	-1.3
- Cc1cc2oc(=O)sc2cc1NS(=O)(=O)c1cccc2cccnc12
    -4.2	0.81
- CN1C(=O)C(C)(C)c2cc(S(=O)(=O)N(C)CC(=O)N3CCc4ccccc4C3)ccc21
    ·	0.81
- O=C(Nc1cccc2c1CCCC2)N1CC2CCCN2c2ccccc21 (configuration not stated)
    ·	-0.59
- CCc1ccc(C2NC(=O)c3n[nH]c(-c4cccs4)c32)cc1 (configuration not stated)
    -0.19	2.5
- O=C(NC1CCS(=O)(=O)C1)c1ccc(N2C(=O)CCS2(=O)=O)cc1Cl (configuration not stated)
    -1.7	2.1
- CN(Cc1ccccc1)C(=O)c1cc2n(n1)C(C(F)(F)F)CC(c1ccccc1)N2 (configuration not stated)
    0.89	-0.04
- CC(=O)N1c2ccccc2CC1C(=O)NCCc1cccs1 (configuration not stated)
    ·	-0.02
- Cc1sc2ncnc(Oc3cccc4cccnc34)c2c1C
    0.26	·
- C=CCn1cnc2c(oc3ccccc32)c1=O
    ·	-0.62
- O=C(Cn1cc(S(=O)(=O)N2CCCC2)c(S(=O)(=O)N2CCCC2)c1)Nc1nccs1
    ·	1.6
- CN(Cc1ccco1)S(=O)(=O)c1ccc(-c2ccc(=O)[nH]n2)o1
    ·	1.4
- COC(=O)c1sccc1S(=O)(=O)N1CC=C(c2ccccc2)CC1
    ·	1.4
- Cc1nn(CCCC(=O)NCCCN2C(C)CCCC2C)c(=O)c2cc3occc3n12 (configuration not stated)
    -1.3	1.7
- Cc1ccc(C2C3=C(CC(C)(C)CC3=O)Nc3[nH]c(=O)[nH]c(=O)c32)cc1 (configuration not stated)
    0.11	·
- Fc1cccc(NC(c2ccccc2)c2nnc(-c3ccccc3F)o2)c1 (configuration not stated)
    0.02	2.5
- CCS(=O)(=O)c1nc(S(=O)(=O)c2ccc(C)cc2)c(NCCC(C)C)s1
    -0.19	1.2
- Brc1ccc(Cc2nnc(-c3ccccc3)o2)cc1
    -0.81	-1.2
- O=C1c2ccccc2C(=O)c2c(NC3CCCCC3)ccc(NC3CCCCC3)c21
    0.68	·
- Cc1c(C(=O)N2CCN(c3ccccc3)CC2)sc2nc3n(c(=O)c12)CCCC3
    ·	3
- Cc1ccccc1NS(=O)(=O)C1CCS(=O)(=O)C1 (configuration not stated)
    -1.3	-0.88
- CNCC[C@H](Oc1ccc(C(F)(F)F)cc1)c1ccccc1
    -3	·
- CCC(C)NC(=O)C1CCC(Cn2c(=O)[nH]c3ccccc3c2=O)CC1 (configuration not stated)
    -0.96	·
- COc1cc(OC)c(C2N(C)c3ccccc3N2C)cc1OC
    0.91	·
- O=C(CSCC(=O)N1CCc2ccccc2C1)Nc1nc(-c2cccs2)cs1
    ·	-0.67
- Cc1ccc(C(C)NC2(C#N)C3CC4CC(C3)CC2C4)c(C)c1 (configuration not stated)
    0.19	·
- Cc1nc2nncn2c(Nc2ccc(F)cc2)c1C
    -2.2	2
- CCc1nnc(NC(=O)c2cnc3sc(N4CCOCC4)nn3c2=O)s1
    ·	-0.45
- COc1cccc(CC(=O)NNC(=O)c2cnn(-c3ccccc3)c2C)c1
    -2.5	·
- Cc1ccc(C(=O)c2cn(C)c3nc(C)ccc3c2=O)cc1
    -3	0.44
- CCCc1cc(C2CCCN2C(=O)c2cc(C(C)C)no2)no1 (configuration not stated)
    ·	1.6
- Cc1cc(NC(=O)C2=CC(c3cccs3)=NS(=O)(=O)N2C)n(-c2ccccc2)n1
    -2.2	2.1
- CC1CCC(NC(=O)c2ccc3snnc3c2)CC1 (configuration not stated)
    -1.1	2.1
- CCOc1ccc2nc(NC(=O)C3CCCN(S(=O)(=O)c4cccs4)C3)sc2c1 (configuration not stated)
    -0.01	·
- Cn1c(C(=O)NCC2CCCO2)cc2c(=O)[nH]c3ccccc3c21 (configuration not stated)
    -0.06	·
- Oc1c(Br)cc(Br)cc1/C=N/n1cnnc1
    -2.3	·
- O=C(Sc1sc(=S)sc1SC(=O)c1ccccc1)c1ccccc1
    0.68	·
- Cc1cc(=O)nc2c3ccccc3n(CC(=O)NCCN3CCN(C)CC3)n12
    -0.85	-1.8
- CC(C)c1ccc(NS(=O)(=O)c2ccc3c(c2)N(C)CCO3)cc1
    ·	1.3
- CC(C)COC(=O)CNc1n[nH]c(=O)[nH]c1=O
    -0.7	0.63
- Cc1ccc(S(=O)(=O)N2CCN(c3cc(N4CCCCC4)nc(C)n3)CC2)cc1
    -0.54	-0.71
- O=C(CC1CCCC1)N1CCC(n2nc(-c3ccccc3)oc2=O)CC1
    0.64	0.51
- CCc1nnc2c3ccccc3[nH]c(=O)n12
    -0.39	0.41
- O=C1c2cccnc2C(=O)N1Cc1ccc(S(=O)(=O)Nc2ccc(F)c(Cl)c2)cc1
    ·	0.23
- Cn1c(COc2ccc(F)cc2)nc2ccccc21
    -0.5	2.7
- C=CCn1c(COc2ccc(OC)cc2)nnc1SCC(=O)c1ccc(Cl)cc1
    ·	0.5
- CC(Oc1ccc2oc3ccccc3c(=O)c2c1)C(=O)O (configuration not stated)
    -1.5	·
- Cc1ccc(CN(Cc2ccco2)C(=O)c2cc(-c3ccc(C)c(C)c3)on2)o1
    -1.6	1.6
- CC(=O)N1C(=O)c2cccc3cccc1c23
    -0.24	2.1
- COc1cc2c(c(OC)c1OC)-c1c(cc3c(c1OC)OCO3)CC(C)C(C)C2 (configuration not stated)
    ·	0.4
- CCCC(=O)OCc1cc(=O)n2nc(C)sc2n1
    ·	0.06
- Fc1ccccc1Cc1cn2cc(-c3ccccc3)nc2s1
    -1.2	0.4
- CCCS(=O)(=O)N1CCCc2ccc(NS(=O)(=O)c3cc(C)ccc3C)cc21
    ·	2.3
- Cc1nnc(SCCCn2c(N3CCCCC3)nc3c2c(=O)[nH]c(=O)n3C)s1
    -0.4	-0.71
- Cc1nn2c(=O)cc(COc3ccc(NS(=O)(=O)c4ccc(Cl)cc4)cc3)nc2s1
    -1.2	-0.09
- O=C(c1noc2c1COc1ccccc1-2)N(CCCN1CCOCC1)Cc1ccco1
    -1.5	-0.02
- Nc1n[nH]c(-c2ccccc2)c1-c1ccccc1
    -1.5	·
- O=C(c1ccc2c(c1)N(Cc1ccc(Cl)cc1)C(=O)CS2)N1CCC2(CC1)OCCO2
    0.42	·
- CCN1CCCC1CNC(=O)c1n[nH]c(=O)c2ccccc12 (configuration not stated)
    0.41	·

# The listing continues.
# Fields: CDC25B CDK2 inh	HIV TAR-Tat
- COc1nc(NCCO)nc(Nc2ccc(Cl)cc2)n1
    ·	1.3
- CCOC(=O)c1c(NC(=O)Nc2c(C)n(C)n(-c3ccccc3)c2=O)sc2c1CCCC2
    -1.2	0.64
- CSc1ncc(Cl)c(C(=O)Nc2sc3c(c2C(=O)NCc2ccco2)CCC3)n1
    -1	-0.59
- COCCNc1ncnc2c1cnn2-c1ccc(OC)cc1
    -1.8	·
- Cn1cnc(C(=O)O)c1C(=O)O
    0.84	·
- C=CCSC1=C(C#N)C(c2ccccc2C)CC(=O)N1 (configuration not stated)
    0.76	-2.8
- CC1CCN(C(=O)CCNC(=O)Cn2cnc3sc4c(c3c2=O)CCCC4)CC1
    -0.27	·
- Cn1c(=O)c2c(nc(NC3CCCCC3)n2Cc2ccc(F)cc2)n(C)c1=O
    -0.61	2.4
- CCOC(=O)C1=C(C)Nc2nc3ccccc3n2C1c1cccc(C)c1 (configuration not stated)
    -1.4	1.4
- CNC(=O)C1Cc2ccccc2N1C(=O)c1ccccc1 (configuration not stated)
    ·	1.3
- CCOc1ccc(-c2nc(SCC(=O)NC(C)C)n3[nH]c(=O)cc3n2)cc1
    ·	-0.15
- COc1cc(C2C(C#N)=C(N)Oc3c2c(C)nn3-c2ccccc2)ccc1O (configuration not stated)
    -0.65	0.39
- CC1=NS(=O)(=O)c2cc(C(=O)NCC(C)C)ccc2N1CC(C)C
    ·	1.9
- Cc1nc(NC(C)Cc2ccccc2)c2sc3nc4c(cc3c2n1)COC(C)(C)C4 (configuration not stated)
    ·	-0.96
- O=c1cc(CSc2nc3ccccc3s2)nc2sc(-c3ccco3)nn12
    -1.4	0.27
- O=C(CCCn1c(=O)c2cccn2c2ccccc21)NCCN1CCCC1
    ·	2.7
- O=C(c1ccccc1)n1nc2ccc3nn(C(=O)c4ccccc4)nc3c2n1
    -0.89	·
- Nc1c(-c2nc(-c3cccnc3)no2)nnn1-c1cccc(F)c1
    ·	0.04
- Cn1c(=O)n(Cc2ccc3c(c2)OCO3)c(=O)c2oc3ccccc3c21
    ·	2.1
- CC(NS(=O)(=O)c1ccc(Cl)cc1)C(c1cccs1)N1CCN(C)CC1 (configuration not stated)
    -2.2	·
- CCC(=O)OCc1cc(=O)n2c(C)csc2n1
    ·	0.56
- CC(=O)N[C@H]1C(OC(C)=O)O[C@H](COC(C)=O)[C@@H](OC(C)=O)[C@@H]1OC(C)=O (some centres not stated)
    -0.77	·
- CCOc1ccc(NC(C)=O)cc1
    ·	-1.6
- CCc1c(-c2ccccc2)nc(N)c(C#N)c1-c1cccs1
    -1.6	0.88
- Cc1cc(-c2ccc(S(=O)(=O)Nc3ccc(F)cc3C)o2)n[nH]1
    ·	1.7
- COc1ccc(C(=O)c2cnc3cc4c(cc3c2N2CCN(C)CC2)OCCO4)cc1
    -0.09	-0.51
- Cc1cc2[nH]c(=O)[nH]c2cc1NC(=O)NCCC(C)C
    ·	1.2
- O=C(NCC1CCCO1)c1cc2n(n1)C(C(F)(F)F)CC(c1ccc(F)cc1)N2 (configuration not stated)
    -1.2	2.3
- O=C(CC1(O)C(=O)Nc2ccc(Br)cc21)c1ccc(Cl)cc1 (configuration not stated)
    -0.64	-2
- CCCNS(=O)(=O)c1c[nH]c(C(=O)OC)c1
    ·	2

# Shown tab-delimited: entries from further up
mol	CDC25B CDK2 inh	HIV TAR-Tat
O=C(CCCn1c(=O)c2cccn2c2ccccc21)NCCN1CCCC1	·	2.7
O=C(c1ccccc1)n1nc2ccc3nn(C(=O)c4ccccc4)nc3c2n1	-0.89	·
Nc1c(-c2nc(-c3cccnc3)no2)nnn1-c1cccc(F)c1	·	0.04
Cn1c(=O)n(Cc2ccc3c(c2)OCO3)c(=O)c2oc3ccccc3c21	·	2.1
CC(NS(=O)(=O)c1ccc(Cl)cc1)C(c1cccs1)N1CCN(C)CC1 (configuration not stated)	-2.2	·

# The results go on:
# Fields: CDC25B CDK2 inh	HIV TAR-Tat
- O=C1CC(N2CCC(O)CC2)C(=O)N1c1ccc(Br)cc1 (configuration not stated)
    -1.6	0.23
- O=C(c1ccc(N2C(=O)CCS2(=O)=O)cc1)N1CCN(C(=O)c2ccco2)CC1
    -0.31	0.7
- CN1CCN(C(=O)Nc2cccc(Cl)c2)c2cccnc21
    -0.48	-0.92
- CSc1ccc(CN2CCN(S(=O)(=O)c3ccc4ccccc4c3)CC2)cc1
    -0.89	1.4
- CC1=C(C(=O)Nc2ccc(Cl)cc2C(=O)N2CCC(N3CCCCC3)CC2)SCCO1
    ·	1
- O=C(CCc1cc(C(F)(F)F)cc(C(F)(F)F)c1)N/N=C/c1ccc2c(c1)OCO2
    -1.7	·
- COc1ccc(C2C3=C(CC(C)(C)CC3=O)OC3=C2C(=O)CC(C)(C)C3)cc1C(=O)O
    -1.6	·
- Cc1nnc(SCC(=O)Nc2nc(-c3ccc(Cl)cc3)ns2)s1
    -1.4	-0.15
- CCC(CO)Nc1ncnc2nc[nH]c12 (configuration not stated)
    0.13	1.9
- Cc1cc(=O)n2nc(N3CCCC(C(=O)NC4CCCCC4C)C3)sc2n1 (configuration not stated)
    1.1	0.31
- CCC(=O)NNc1ccccc1
    -1.1	·
- Cc1cc(OCc2noc(-c3ccccn3)n2)ccc1Cl
    0.08	2.2
- c1cc(N2CCOCC2)ccc1NC1=NCCS1
    -1.5	·
- Clc1cccc(-c2nnc3sc(-c4cnccn4)nn23)c1
    -2.1	-0.55
- O=C(c1sc(=S)n2c1[nH]c(=O)c1ccccc12)N1CCc2ccccc2C1
    ·	3.7

# Full records, looked up by structure:
# CCC(=O)NNc1ccccc1 is entered as CDC25B CDK2 inh: -1.1; HIV TAR-Tat: ·
# CSc1ccc(CN2CCN(S(=O)(=O)c3ccc4ccccc4c3)CC2)cc1 is entered as CDC25B CDK2 inh: -0.89; HIV TAR-Tat: 1.4
# O=C1CC(N2CCC(O)CC2)C(=O)N1c1ccc(Br)cc1 (configuration not stated) is entered as CDC25B CDK2 inh: -1.6; HIV TAR-Tat: 0.23

# Later entries.
# Fields: CDC25B CDK2 inh	HIV TAR-Tat
- Cc1ccc(C)c(-n2nnc(-c3nc(-c4ccc(Cl)cc4)no3)c2N)c1
    ·	0.18
- CCOC(=O)c1c(NC(=O)CCCn2nc([N+](=O)[O-])c(Br)c2C)sc2c1CCCC2
    -1	-1.5
- COc1ccc(OCC(=O)OCc2cc(=O)n3cc(C)sc3n2)cc1
    ·	0.43
- CCc1ccc(-c2nc(CSCC(=O)NC3CC3)c(C)o2)cc1
    -2.1	-0.75
- N#Cc1ccc(C=NCCN2CCNC2=O)cc1
    -2.1	·
- CCC(=O)N1CCN(c2nc(CC(C)C)c3c(c2C#N)CC(C)(C)OC3)CC1
    -2.1	0.85
- Cn1c(NC(=O)C2CC2)cc(=O)n(C)c1=O
    ·	1.6
- CC1CC(C)CN(C(=O)NCc2noc3ccccc23)C1 (configuration not stated)
    ·	-0.86
- CC(Oc1ccccc1)c1nc2ccc(F)cc2[nH]1 (configuration not stated)
    -1.3	0.18
